From PubChem
Ran FRET: RanGTP/importin-beta interaction disruptors – biochemical, CFP-Ran/YFP-importin-beta FRET, RCC1, cell-free, primary screen (AID 434961) | CFP-Ran/YFP-importin-beta FRET, cell-free; hits give high values | inhibition, % | hit rate 0.2% among 7,700;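 active = more than half of the replicate wells above 15% inhibition; inconclusive = exactly half above it; inactive = fewer than half above it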;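 also: 0% = DMSO wells and 100% inhibition = RanGDP control wells on each plate; stock of unstated strength diluted about 400-fold; mean of two wells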
* marks the source's active call; other numbers are inactive results; ? = inconclusive. The list is partial; the hit share may differ from the screen's.

Cc1noc(C)c1NC(=O)N(C)C[C@@H]1OCCCC[C@@H](C)Oc2ccc(NS(C)(=O)=O)cc2C(=O)N([C@H](C)CO)C[C@H]1C
  Ran FRET = -0.6
C[C@@H]1CCCCO[C@@H](CN(C)C(=O)c2ccccc2)[C@H](C)CN([C@@H](C)CO)C(=O)c2cc(NC(=O)Nc3ccc4c(c3)OCO4)ccc2O1
  Ran FRET = -7.0
CC(C)NC(=O)N(C)C[C@H]1Oc2ccc(NC(=O)CCN3CCOCC3)cc2C(=O)N([C@H](C)CO)C[C@H]1C
  Ran FRET = 4.8
C[C@@H]1CCCCO[C@H](CN(C)C(=O)CCC(F)(F)F)[C@@H](C)CN([C@@H](C)CO)C(=O)c2cc(NC(=O)CCC(F)(F)F)ccc2O1
  Ran FRET = 9.1
C[C@@H]1CN([C@@H](C)CO)C(=O)c2cccc(NS(C)(=O)=O)c2O[C@@H]1CN(C)Cc1ccncc1
  Ran FRET = 0.3
C[C@@H]1CN([C@@H](C)CO)C(=O)c2cc(NC(=O)CCN3CCOCC3)ccc2O[C@H]1CN(C)C
  Ran FRET = 0.7
C[C@@H]1CCCCO[C@@H](CN(C)C)[C@H](C)CN([C@@H](C)CO)C(=O)c2cc(N(C)C)ccc2O1
  Ran FRET = ?
C[C@@H]1CN([C@H](C)CO)C(=O)c2cc(N(C)C)ccc2O[C@@H]1CN(C)Cc1ccccc1
  Ran FRET = -1.8
C[C@H](CO)N1C[C@H](C)[C@H](CN(C)S(=O)(=O)c2cn(C)cn2)Oc2ccc(NS(=O)(=O)c3cn(C)cn3)cc2CC1=O
  Ran FRET = 1.0
C[C@@H]1CCCCO[C@H](CN(C)C)[C@@H](C)CN([C@H](C)CO)C(=O)c2cc(N(C)C)ccc2O1
  Ran FRET = -6.3
C[C@H]1CN([C@@H](C)CO)C(=O)CCCn2cc(nn2)CO[C@H]1CN(C)S(=O)(=O)c1ccc(Cl)cc1
  Ran FRET = -2.0
C[C@@H]1CN([C@@H](C)CO)C(=O)c2cc(NS(=O)(=O)c3cccs3)ccc2O[C@@H]1CN(C)C(=O)Nc1ccc(F)cc1
  Ran FRET = -0.7
C[C@H](CO)N1C[C@H](C)[C@@H](CN(C)C(=O)Nc2cccc3ccccc23)Oc2c(NS(=O)(=O)c3ccc(Cl)cc3)cccc2C1=O
  Ran FRET = ?
C[C@@H]1CN([C@H](C)CO)C(=O)Cc2cc(NC(=O)NC3CCCCC3)ccc2O[C@H]1CN(C)C(=O)NC1CCCCC1
  Ran FRET = -0.9
C[C@@H]1CN([C@H](C)CO)C(=O)Cc2cc(NC(=O)Cc3ccccc3)ccc2O[C@H]1CN(C)CC1CC1
  Ran FRET = -5.5

C[C@@H]1CN([C@@H](C)CO)C(=O)c2cc(NS(=O)(=O)c3cn(C)cn3)ccc2O[C@H]1CN(C)C
  Ran FRET = 2.5
C[C@@H]1CN([C@H](C)CO)C(=O)c2cccc(NC(=O)C3CCOCC3)c2O[C@H]1CN(C)C
  Ran FRET = -4.8
C[C@@H]1CN([C@H](C)CO)C(=O)Cc2cc(NC(=O)C3CC3)ccc2O[C@H]1CN(C)Cc1ccc(C(F)(F)F)cc1
  Ran FRET = 1.0
COc1ccc(S(=O)(=O)N(C)C[C@H]2Oc3c(NC(=O)C4CC4)cccc3C(=O)N([C@H](C)CO)C[C@@H]2C)cc1
  Ran FRET = 1.4
C[C@@H]1CCCCO[C@H](CN(C)C(=O)CCCN(C)C)[C@@H](C)CN([C@@H](C)CO)C(=O)c2cc(NC(=O)CCCN(C)C)ccc2O1
  Ran FRET = -1.3
C[C@@H]1CN([C@H](C)CO)C(=O)c2cccc(NC(=O)C3CCOCC3)c2O[C@@H]1CN(C)Cc1ccc(C(F)(F)F)cc1
  Ran FRET = 1.5
CC(C)NC(=O)Nc1ccc2c(c1)C(=O)N([C@@H](C)CO)C[C@@H](C)[C@H](CN(C)C)OCCCC[C@@H](C)O2
  Ran FRET = -0.3
C[C@H](CO)N1C[C@H](C)[C@@H](CN(C)C(=O)Nc2ccc(C(F)(F)F)cc2)Oc2ccc(NS(C)(=O)=O)cc2CC1=O
  Ran FRET = -0.1
C[C@H](CO)N1C[C@H](C)[C@@H](CN(C)S(=O)(=O)c2ccc(F)cc2)OCCCC[C@H](C)Oc2ccc(NC(=O)c3ccncc3)cc2C1=O
  Ran FRET = 0.4
C[C@H](CO)N1C[C@H](C)[C@H](CN(C)C)Oc2ccc(NC(=O)Cc3ccccc3)cc2CC1=O
  Ran FRET = 4.0
COc1ccc(CN(C)C[C@@H]2Oc3ccc(NC(=O)c4ccncc4)cc3C(=O)N([C@@H](C)CO)C[C@H]2C)cc1
  Ran FRET = 4.2
C[C@H]1CCCCO[C@H](CN(C)Cc2ccncc2)[C@@H](C)CN([C@@H](C)CO)C(=O)c2cc(NC(=O)c3ccncc3)ccc2O1
  Ran FRET = 7.6
CC(C)NC(=O)N(C)C[C@@H]1Oc2ccc(NC(=O)CCN3CCOCC3)cc2C(=O)N([C@@H](C)CO)C[C@H]1C
  Ran FRET = 1.8
C[C@@H]1CN([C@H](C)CO)C(=O)Cc2cc(NC(=O)Cn3cnnn3)ccc2O[C@@H]1CN(C)C(=O)Nc1ccc(F)cc1
  Ran FRET = 2.9
C[C@H]1CN([C@@H](C)CO)C(=O)c2cc(NS(=O)(=O)c3ccc(Cl)cc3)ccc2O[C@H]1CN(C)C(=O)Nc1ccc2c(c1)OCO2
  Ran FRET = 1.3

Three of the entries above in order of the Ran FRET value, highest first.
C[C@@H]1CN([C@@H](C)CO)C(=O)c2cc(NS(=O)(=O)c3cn(C)cn3)ccc2O[C@H]1CN(C)C
  Ran FRET = 2.5
C[C@@H]1CN([C@H](C)CO)C(=O)c2cccc(NC(=O)C3CCOCC3)c2O[C@@H]1CN(C)Cc1ccc(C(F)(F)F)cc1
  Ran FRET = 1.5
C[C@@H]1CN([C@H](C)CO)C(=O)Cc2cc(NC(=O)C3CC3)ccc2O[C@H]1CN(C)Cc1ccc(C(F)(F)F)cc1
  Ran FRET = 1.0

Next part:
C[C@@H]1CN([C@@H](C)CO)C(=O)c2cccc(NS(=O)(=O)c3cn(C)cn3)c2O[C@H]1CN(C)Cc1ccc(Oc2ccccc2)cc1
  Ran FRET = 2.9
C[C@@H]1CN([C@H](C)CO)C(=O)Cc2cc(NC(=O)NC3CCCCC3)ccc2O[C@@H]1CN(C)C(=O)Nc1ccc2c(c1)OCO2
  Ran FRET = 6.7
Cc1ccc(S(=O)(=O)N(C)C[C@H]2Oc3ccc(NC(=O)C4CC4)cc3CC(=O)N([C@H](C)CO)C[C@@H]2C)cc1
  Ran FRET = -3.7
CNC[C@H]1Oc2c(NC(=O)c3nc4ccccc4s3)cccc2C(=O)N([C@@H](C)CO)C[C@@H]1C
  Ran FRET = -1.9
COc1ccc(CN(C)C[C@@H]2Oc3c(NC(=O)c4cnccn4)cccc3C(=O)N([C@H](C)CO)C[C@H]2C)cc1
  Ran FRET = 2.2
C[C@H]1CN([C@@H](C)CO)C(=O)c2cc(NC(=O)NC3CCCCC3)ccc2O[C@H]1CN(C)S(=O)(=O)c1ccc(Cl)cc1
  Ran FRET = 1.2
C[C@@H]1CN([C@@H](C)CO)C(=O)c2cccc(N(C)C)c2O[C@@H]1CN(C)S(=O)(=O)c1ccc(Cl)cc1
  Ran FRET = -4.4
C[C@H]1CN([C@@H](C)CO)C(=O)Cc2cc(NC(=O)c3ccncc3)ccc2O[C@@H]1CN(C)C(=O)NC1CCCCC1
  Ran FRET = ?
CNC[C@@H]1Oc2c(NS(=O)(=O)c3cn(C)cn3)cccc2C(=O)N([C@@H](C)CO)C[C@@H]1C
  Ran FRET = -1.1
CC(C)NC(=O)Nc1ccc2c(c1)CC(=O)N([C@@H](C)CO)C[C@H](C)[C@H](CN(C)CC1CC1)O2
  Ran FRET = 5.0
CNC[C@@H]1Oc2ccc(N)cc2C(=O)N([C@@H](C)CO)C[C@H]1C
  Ran FRET = 0.4
COc1ccc(NC(=O)Nc2cccc3c2O[C@@H](CN(C)S(=O)(=O)c2ccc(OC)cc2)[C@@H](C)CN([C@@H](C)CO)C3=O)cc1
  Ran FRET = 0.2
C[C@H](CO)N1C[C@H](C)[C@H](CN(C)Cc2ccncc2)Oc2ccc(NC(=O)Cc3cn(C)c4ccccc34)cc2CC1=O
  Ran FRET = ?
C[C@H](CO)N1C[C@H](C)[C@@H](CN(C)C(=O)Nc2cccc3ccccc23)Oc2ccc(NC(=O)C3CC3)cc2C1=O
  Ran FRET = 3.5
CNC[C@@H]1Oc2ccc(N(C)C)cc2CC(=O)N([C@H](C)CO)C[C@@H]1C
  Ran FRET = -4.6

C[C@@H]1CCCCO[C@H](CN(C)C)[C@H](C)CN([C@H](C)CO)C(=O)c2cc(NS(=O)(=O)c3cccs3)ccc2O1
  Ran FRET = 6.6
COc1ccc(CN(C)C[C@H]2Oc3c(NC(=O)Nc4ccc(C(F)(F)F)cc4)cccc3C(=O)N([C@H](C)CO)C[C@@H]2C)cc1
  Ran FRET = -0.2
Cc1noc(C)c1NC(=O)Nc1ccc2c(c1)CC(=O)N([C@H](C)CO)C[C@@H](C)[C@H](CN(C)C)O2
  Ran FRET = 0.0
C[C@H](CO)N1C[C@H](C)[C@H](CN(C)C(=O)Nc2ccc(F)cc2)Oc2ccc(NS(=O)(=O)c3cccs3)cc2CC1=O
  Ran FRET = -2.9
C[C@@H]1CCCCO[C@@H](CN(C)C(=O)Nc2ccccc2)[C@@H](C)CN([C@@H](C)CO)C(=O)c2cc(NS(=O)(=O)c3ccccc3)ccc2O1
  Ran FRET = 3.9
CNC[C@@H]1OCCCC[C@H](C)Oc2ccc(NC(=O)c3ccncc3)cc2C(=O)N([C@@H](C)CO)C[C@H]1C
  Ran FRET = -6.0
C[C@H]1CCCCO[C@@H](CN(C)S(=O)(=O)c2ccccc2)[C@@H](C)CN([C@@H](C)CO)C(=O)c2cc(NC(=O)c3ccccc3)ccc2O1
  Ran FRET = -1.2
C[C@H]1CN([C@@H](C)CO)C(=O)Cc2cc(NC(=O)NC3CCCCC3)ccc2O[C@@H]1CN(C)S(=O)(=O)c1cn(C)cn1
  Ran FRET = 0.0
C[C@H](CO)N1C[C@H](C)[C@@H](CN(C)CC2CC2)Oc2ccc(NS(=O)(=O)c3cccs3)cc2C1=O
  Ran FRET = 3.3
CC(C)NC(=O)Nc1ccc2c(c1)C(=O)N([C@@H](C)CO)C[C@@H](C)[C@@H](CN(C)C(=O)c1ccncc1)OCCCC[C@H](C)O2
  Ran FRET = 4.3
C[C@@H]1CN([C@@H](C)CO)C(=O)CCCn2nncc2CO[C@H]1CN(C)C(=O)C1CC1
  Ran FRET = 5.0
C[C@@H]1CCCCO[C@H](CN(C)Cc2ccncc2)[C@H](C)CN([C@@H](C)CO)C(=O)c2cc(NS(=O)(=O)c3ccccc3)ccc2O1
  Ran FRET = -2.4
C[C@H]1CN([C@@H](C)CO)C(=O)c2cccc(NS(=O)(=O)c3cccs3)c2O[C@@H]1CN(C)Cc1ccc(C(=O)O)cc1
  Ran FRET = -0.6
C[C@@H]1CN([C@@H](C)CO)C(=O)c2cc(NC(=O)C3CC3)ccc2O[C@H]1CN(C)C(=O)Nc1cccc2ccccc12
  Ran FRET = 2.1
C[C@@H]1CN([C@H](C)CO)C(=O)Cc2cc(N(C)C)ccc2O[C@H]1CN(C)Cc1ccc(C(F)(F)F)cc1
  Ran FRET = -0.7

Cc1noc(C)c1S(=O)(=O)Nc1ccc2c(c1)C(=O)N([C@@H](C)CO)C[C@H](C)[C@@H](CN(C)C(=O)Nc1ccc(F)cc1)O2
  Ran FRET = -0.7
C[C@H](CO)N1C[C@H](C)[C@@H](CN(C)C(=O)Cc2ccccc2)OCCCC[C@H](C)Oc2ccc(NC(=O)Nc3ccc(F)cc3)cc2C1=O
  Ran FRET = -4.1
C[C@@H]1CN([C@H](C)CO)C(=O)c2cc(NC(=O)Nc3ccc(F)cc3)ccc2O[C@H]1CN(C)Cc1ccc2c(c1)OCO2
  Ran FRET = 1.8
CC(C)NC(=O)N(C)C[C@H]1OCCCC[C@@H](C)Oc2ccc(NC(=O)Nc3ccccc3)cc2C(=O)N([C@H](C)CO)C[C@@H]1C
  Ran FRET = -3.7
C[C@@H]1CN([C@H](C)CO)C(=O)c2cc(NC(=O)NC3CCCCC3)ccc2O[C@H]1CN(C)C(=O)Nc1ccc2c(c1)OCO2
  Ran FRET = ?
Cc1noc(C)c1S(=O)(=O)Nc1ccc2c(c1)C(=O)N([C@@H](C)CO)C[C@H](C)[C@H](CN(C)C(=O)NC(C)C)OCCCC[C@H](C)O2
  Ran FRET = -2.7
COc1ccc(S(=O)(=O)Nc2cccc3c2O[C@@H](CN(C)S(=O)(=O)c2ccc(F)cc2)[C@H](C)CN([C@H](C)CO)C3=O)cc1
  Ran FRET = -0.3
CNC[C@@H]1OCCCC[C@H](C)Oc2ccc(N(C)C)cc2C(=O)N([C@H](C)CO)C[C@H]1C
  Ran FRET = -2.0
CNC[C@H]1OCc2cnnn2CCCC(=O)N([C@@H](C)CO)C[C@@H]1C
  Ran FRET = 1.5
COc1ccc(S(=O)(=O)N(C)C[C@@H]2Oc3ccc(NC(=O)Cn4cnnn4)cc3C(=O)N([C@H](C)CO)C[C@@H]2C)cc1
  Ran FRET = -6.9
C[C@@H]1CCCCO[C@H](CN(C)C(=O)Nc2ccccc2)[C@@H](C)CN([C@H](C)CO)C(=O)c2cc(NC(=O)Nc3ccccc3)ccc2O1
  Ran FRET = 5.1
CNC[C@H]1OCCCC[C@@H](C)Oc2ccc(NC(=O)NC(C)C)cc2C(=O)N([C@@H](C)CO)C[C@H]1C
  Ran FRET = 0.8
C[C@@H]1CN([C@H](C)CO)C(=O)CCCn2cc(nn2)CO[C@H]1CN(C)C(=O)Nc1ccc2c(c1)OCO2
  Ran FRET = 2.0
C[C@H](CO)N1C[C@H](C)[C@H](CN(C)CC2CC2)OCCCC[C@H](C)Oc2ccc(NC(=O)Nc3ccccc3)cc2C1=O
  Ran FRET = 1.8
C[C@@H]1CN([C@H](C)CO)C(=O)CCCn2cc(nn2)CO[C@@H]1CN(C)C(=O)Nc1ccc(N2CCCCC2)cc1
  Ran FRET = 11
Cc1noc(C)c1S(=O)(=O)Nc1cccc2c1O[C@H](CN(C)Cc1ccccc1)[C@H](C)CN([C@@H](C)CO)C2=O
  Ran FRET = -7.3
C[C@@H]1CN([C@@H](C)CO)C(=O)c2cc(NC(=O)Cc3ccccc3)ccc2O[C@@H](C)CCCCO[C@@H]1CN(C)C(=O)CCCN(C)C
  Ran FRET = ?
